Assay outcomes (PubChem BioAssay)
TAR Tat displ: TAR RNA-Tat peptide displacers, HIV-1, primary screen, biochemical, FRET, FAM/TAMRA-labeled Tat; HIV-1 TAR RNA, Tat peptide displacement FRET; hits give high values; z-score (no concentration beside the values); 100,000 tested, 0.6% active;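 also: score is relative to mean and SD of negative controls; some compounds called inactive have numbers as strong as hits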
CDC25B CDK2 inh: primary biochemical HTRF screen for blockers of M-phase inducer phosphatase 2 binding to CDK2/cyclin A. P30305+P24941. HTRF CDC25B-CDK2/CyclinA binding, anti-His/anti-Flag; hits give high values. z-score (no concentration beside the values). 94,000 tested, 0.72% active;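 also: score is relative to mean and SD of negative controls; strong numbers were not always called active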
Active calls of the source: *; / = no result given.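 The calls were made as follows: active = z-score from 3 up in half or more of its runs; inactive = the rest.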 The order is random (roughly 0.87% active in at least one column).

SMILES	TAR Tat displ	CDC25B CDK2 inh
CN1CCN(CCNC(=O)c2nn(C)c3c2CSc2ccccc2-3)CC1	1.4	-0.6
CC(C)CC(NC(=O)C(COC(C)(C)C)NC(=O)C(Cc1ccc(O)cc1)NC(=O)C(CO)NC(=O)C(Cc1c[nH]c2ccccc12)NC(=O)C(Cc1cnc[nH]1)NC(=O)C1CCC(=O)N1)C(=O)N[C@@H](CCCN=C(N)N)C(=O)N1CCCC1C(=O)NNC(N)=O (some centres not stated)	-0.44	/
CCC(CC)C(=O)Nc1nnc(SCc2cc(=O)n3nc(C)sc3n2)s1	0.05	/
Cn1nnnc1SCCNCc1cc(Br)ccc1OCc1ccc(F)cc1	0.5	-1.7
O=C(CCn1c(=S)[nH]c2cc3c(cc2c1=O)OCO3)N1CCN(C(=O)c2ccco2)CC1	/	-1.7
Cc1cccc(N2CCN(Cc3csc(C)c3C)CC2C)c1 (configuration not stated)	0.58	/
COC(=O)c1cc(S(=O)(=O)N2CCOCC2)c(Cl)cc1N1CCOCC1	-0.16	-1.3
CCC12CN3CC(CC)(CN(C1)C3c1ccc(C)cc1)C2O (configuration not stated)	-0.97	-0.69
Cc1[nH]ncc1-c1nc(-c2ccc(Cl)cc2)no1	/	-2.2
Cc1cc(C)c(S(=O)(=O)Nc2cccc(-c3ccc(N4CCOCC4)nn3)c2)c(C)c1	1.4	/
CC(C)c1ccc(NS(=O)(=O)c2ccc3c(c2)CC(C)N3C(=O)C2CCC2)cc1 (configuration not stated)	-1.9	/
CC(=O)/C(=C\N(C)C)Sc1ccccn1	/	-2.1
Cc1cc(-c2c(C(=O)O)c(C)nn2-c2ccccc2)no1	/	-2
Cc1ccc(C)c(N2CCN(S(=O)(=O)c3c(C)noc3C)CC2)c1	1.3	-0.3
Cc1cc(C)n(-c2nc3c(c(=O)n2CC(N)=O)CCCC3)n1	12*	/
Nc1cccc(NC(=O)c2cccs2)c1	/	-3.7
Cn1c(=O)c2c(SCC(=O)NCc3ccc4c(c3)OCO4)nc(-c3ccccc3)nc2n(C)c1=O	0.96	/
CCOC(=O)C(C)n1nc(CC)n2c(cc3occc32)c1=O (configuration not stated)	-0.65	1.1
C[n+]1c2ccccc2nc2ccc(NC3CCCCC3N)cc21 (configuration not stated)	-5	-15
CCCCn1cc(S(=O)(=O)c2ccc(Cl)cc2)c(=O)c2cc(OCC)ccc21	-1.2	-1.5
Cc1[nH]n(-c2nc(-c3ccc(F)cc3)cs2)c(=O)c1CCC(=O)N1CCCC1	-0.75	-3.4
O=C(Cn1c(=O)c(CNc2ccccc2)cc2cc3c(cc21)OCCO3)Nc1ccccc1	-7.4	/
COc1ccc2nc(SCCN3CCCCC3)[nH]c2c1	0	-1.8
CC1(C)C2CC[C@](C)(C2)C1NS(=O)(=O)c1ccc(Cl)cc1 (some centres not stated)	/	-1.9
CCN1c2ccccc2-c2nc(SCC(=O)NCc3ccc4c(c3)OCO4)ncc2S1(=O)=O	-1.6	/
COc1cc(NC(=O)N2CCSc3ccccc32)cc(OC)c1	0.72	/
Cc1ccc(CN2CNc3c(c(=O)n(C)c(=O)n3C)C2)cc1	-0.02	-0.34
Cc1ccc(-n2nc3c(c2NC(=O)c2ccc4c(c2)OCO4)CSC3)c(C)c1	/	-5.6
O=C1c2nc3ccccc3c(C(=O)N(Cc3ccco3)C3CCCC3)c2CN1C1CCCCC1	-0.08	/
COc1ccccc1OC(=O)c1ccc2nsnc2c1	0.1	0.51
O=C(Nc1ccc(C(=O)NC2CC2)cc1)C1=CSCCO1	2	/
CCOc1ccccc1CNS(=O)(=O)c1ccc(-c2cnc(C3CC3)o2)cc1	0.78	/
O=C(NCCCN1CCc2ccccc2C1)c1noc2c1CCc1sccc1-2	-0.28	/
O=C(Oc1cc(S(=O)(=O)c2ccccc2)ccc1[N+](=O)[O-])c1ccc(Cl)cc1	/	-0.8
Cc1nn(C)cc1-c1noc(C)c1C(=O)O	1.8	/
CC(=O)N1c2ccc(S(=O)(=O)N3CCCCC3)cc2CC1C (configuration not stated)	-0.47	/
CCOC(=O)c1ccc2nc(-c3ccccc3)cc(OCC)c2c1	0.42	-1.6
O=C(NCC1CCCO1)c1nnc(Cc2c(F)cccc2Cl)o1 (configuration not stated)	0.06	-0.01
CN(C)CCNC(=O)c1c(O)c2cccc3c2n(c1=O)CCC3	0.65	/
CC(C(=O)Nc1ccc(Br)cc1)N1Cc2ccccc2C1=O (configuration not stated)	2.2	/
Cc1c(C(=O)N2CCOCC2)c(S(=O)(=O)N2CCN(c3ccc(F)cc3)CC2)c(C)n1C	-0.49	/
Cc1nn2c3c(cnc2c1-c1ccc(F)cc1)C(=O)CC(c1ccco1)C3 (configuration not stated)	-0.27	0
O=C(Nc1ccc(Cl)cn1)c1c2c(nc3ccccc13)C(=O)N(C1CCCCC1)C2	0.69	/
O=C(C1CCN(S(=O)(=O)c2cccnc2)CC1)N1CCOc2ccc(Cl)cc21	1.6	/
CC(COc1ccccc1)N(CCCl)Cc1ccccc1 (configuration not stated)	0.95	/
Cn1cccc1-c1cc2n(n1)CCC(=O)N2CCCC(=O)N1CCC(C(N)=O)CC1	-2	/
Cn1c(C(=O)N2CCCCC2)cc2c(=O)[nH]c3ccccc3c21	1.5	-1.4
CCSc1nc(=O)c2c(n1C)NC(=O)CC2c1cc(F)cc(F)c1 (configuration not stated)	-0.22	-0.53
CC(C)OC(=O)c1cnn2c(C(F)(F)F)cc(-c3ccccc3)nc12	2.6	0.41
Cc1cc(Cl)ccc1OCc1nc(-c2ccc(S(=O)(=O)N3CCCC3)cc2)no1	0.94	/
O=C(c1ccco1)N1CCN(C(=O)c2noc3c2CCc2sccc2-3)CC1	1.1	/
O=C(O)CNc1cc(N2CCCC2)c2noc3c2c1C(=O)c1ccccc1-3	-5.6	5.5*
CCOC(=O)c1c(C)[nH]c(C(=O)CSc2nc(C)nc3sc4c(c23)CCC4)c1C	/	-1.4
CN1C(=O)C(C)(C)c2cc(S(=O)(=O)NCC(=O)NCc3cccs3)ccc21	0.9	/
O=C1CC(c2ccc(F)cc2)CC2=C1C(c1ccc([N+](=O)[O-])o1)Nc1ccccc1N2 (configuration not stated)	0.58	-1.8
N#Cc1c(NC(=O)c2cc(-c3cccc(O)c3)on2)sc2c1CCCC2	1.5	-0.25
CSCCC(NC=O)C(=O)NC(Cc1ccccc1)C(=O)O (configuration not stated)	0.98	/
Cc1cc(C)nc(SCC(=O)c2ccc(F)cc2F)n1	-0.44	-1.1
Cc1cccc(OCCSc2nc(-c3cccs3)nc3cc(=O)[nH]n23)c1	0.65	/
O=C(c1ccc(Cl)cc1)N1C(=O)c2ccc([N+](=O)[O-])cc2C1=O	/	-0.75

7 compounds picked at random from the list so far, as already listed:
SMILES	TAR Tat displ	CDC25B CDK2 inh
O=C1CC(c2ccc(F)cc2)CC2=C1C(c1ccc([N+](=O)[O-])o1)Nc1ccccc1N2 (configuration not stated)	0.58	-1.8
Cc1cccc(OCCSc2nc(-c3cccs3)nc3cc(=O)[nH]n23)c1	0.65	/
O=C(c1ccco1)N1CCN(C(=O)c2noc3c2CCc2sccc2-3)CC1	1.1	/
CCSc1nc(=O)c2c(n1C)NC(=O)CC2c1cc(F)cc(F)c1 (configuration not stated)	-0.22	-0.53
Cc1cc(C)nc(SCC(=O)c2ccc(F)cc2F)n1	-0.44	-1.1
Cc1nn2c3c(cnc2c1-c1ccc(F)cc1)C(=O)CC(c1ccco1)C3 (configuration not stated)	-0.27	0
Cc1cc(Cl)ccc1OCc1nc(-c2ccc(S(=O)(=O)N3CCCC3)cc2)no1	0.94	/

(cont.)
SMILES	TAR Tat displ	CDC25B CDK2 inh
CC(C)C(C(=O)NC1CCCC1)N1Cc2ccccc2C1=O (configuration not stated)	0.7	/
O=C1OC(c2ccccc2)=C/C1=C/c1ccccc1	/	0.12
COc1ccccc1NC(=O)CSc1nc2ccccc2c2nc3ccccc3n12	0.81	/
Cc1ccc(-c2nnc(SCc3ccccc3F)o2)cc1	/	-1.1
Cc1nc(CC(=O)Nc2nc3c(s2)CCCC3)cs1	0.47	0.82
O=C(NCCc1nc2ccc(F)cc2[nH]1)C1CCN(c2ccc(-c3cccs3)nn2)CC1	-0.28	/
Cc1cccc(-c2noc(-c3cc(C(C)C)[nH]n3)n2)c1	-0.45	/
O=C(c1ccccc1Br)N(Cc1ccco1)c1ccccn1	1.9	-1.6
Cc1ccc2nc(SCc3ccccc3C)[nH]c2c1	1.9	-1.1
CC(C)CCNC(=O)c1csc2c1CCCCC2	-0.05	-0.93
CCOC(=O)Nc1sc(C(=O)N(C)C)c(C)c1C(=O)OCC	1.4	-0.28
O=C(O)CC(Cc1ccc(Br)cc1)C(=O)O (configuration not stated)	0.52	-0.31
CN(C)c1cc(NC(=O)CNC(C)(C)CC(C)(C)C)c2ccccc2n1	-1.5	0.13
CC1(C)Cc2nc3oc4c(N5CCCCC5)ncnc4c3cc2CO1	0.78	/
CC1CCCC(C)N1C(=O)Cn1c(=O)oc2cc(S(=O)(=O)N3CCCC3)ccc21 (configuration not stated)	-0.14	-1.1
CCCOc1ccc(N2C(=O)C3C4c5ccccc5C(C)(c5ccccc54)C3C2=O)cc1 (configuration not stated)	/	-0.76
Cc1ccc2c(c1)cc1c(=O)n(Cc3ccccc3Cl)nc(C)n12	2.1	-0.56
Cc1cc(=O)nc2c3ccccc3n(C(C)C(=O)Nc3ccccc3Cl)n12 (configuration not stated)	-1.1	-0.89
CC(C)CN(CC(C)C)c1nnc(N)s1	-0.13	/
CC(C)OC(=O)CSc1nc2ccccc2[nH]1	3.2	-3.1
COc1ccc(Nc2nc(N)c3ccccc3n2)cc1	0.37	-1.9
CCS(=O)(=O)N1CCC2(CC1)OC(=O)C(C)=C2C(=O)Nc1c(C)cc(C)cc1C	0.39	/
Cc1cc2c3c([nH]c2cc1S(=O)(=O)N1CCCc2ccccc21)CC(C)(C)CC3=O	0.76	/
COc1ccc2c(c1)CCc1c-2n[nH]c1C(=O)N1CCN(c2ncccn2)CC1	1.1	/
Cc1nnc2c(NCCCOC(C)C)nc3ccc(C(=O)c4ccccc4)cc3n12	-4.2	/
COC(=O)Cc1ccc2sc(-c3ccccc3)nc2c1	0.97	-1.7
COC(=O)c1cc2oc3ccccc3c2n1CC(=O)NCc1ccco1	8*	4.1
Cc1cc(C2CCCN2C(=O)c2cc3nc(-c4cccs4)cc(C(F)(F)F)n3n2)on1 (configuration not stated)	2.1	/
Cc1nn(-c2ccc(N3CCCC3)nn2)c(C)c1CCC(=O)NC1CCCCC1	0.72	/
CC(=O)N1CC(C)Sc2ccc(S(=O)(=O)N3CCc4ccccc43)cc21 (configuration not stated)	-0.92	/
Cc1cccc(N2CCN(S(=O)(=O)c3c(C)nc4sccn4c3=O)CC2C)c1 (configuration not stated)	-0.7	-0.82
Cc1nn(-c2ccc(-c3noc(C4CC4)n3)cc2)cc1C(=O)N1CCn2c1nc1ccccc12	0.7	/
O=c1[nH]c(SCCCOc2ccccc2)nc2c1CCC2	1.5	-0.92
O=C(/C=C(\C(=O)c1ccccc1)c1ccccc1)c1ccc(F)cc1	/	-1.6
COc1ccc(S(=O)(=O)c2c(C(=O)c3ccc(C)cc3)cnc3cc4c(cc23)OCO4)cc1	-0.24	0.07
O=C(Nc1ccc(-c2nc3ncccc3o2)cc1)c1cccnc1	3.6	2
CC(C)NC(=O)C1CCC(Cn2c(=O)c3sccc3n(CC(=O)N3CCCCC3C)c2=O)CC1 (configuration not stated)	-0.17	/
O=C(NNC(=S)Nc1ccccc1)c1cc(-c2ccccc2)nc2ccccc12	/	-3.6
CCCNc1nc(N2CCN(CC)CC2)c2cnn(C)c2n1	1.1	/
CCOC(=O)c1cc2ccccc2c(=O)s1	3.4	0.47
CCOc1ccc(C2C(C#N)=C(N)Oc3n[nH]c(C)c32)cc1Br (configuration not stated)	0.41	-0.27
O=S(=O)(c1ccc2ccccc2c1)N1CCN(Cc2ccc3c(c2)OCO3)CC1	9*	-0.97
Nc1cc(=O)[nH]c2nnc(SCc3cccc(Oc4ccccc4)c3)n12	0.22	0.03
COCCOC(=O)C1=C(C)NC2=C(C(=O)CC(c3cccs3)C2)C1c1ccc(C(=O)OC)cc1 (configuration not stated)	-1	0.9
CC1(C)CC(Nc2ccc(Nc3ccccc3)cc2)CC(C)(C)N1	/	-0.9
Cc1ccc2cc(CCNC(=O)c3cccs3)c(=O)[nH]c2c1C	/	-2.4
O=C(CSc1nncc2ccccc12)N1CCCCC1	8.3	-0.11
O=C(/C=C/C(=O)Oc1ccccc1C(=O)O)Oc1ccccc1C(=O)O	0.04	/
Cc1noc2ncnc(SCc3ccc(C(F)(F)F)cc3)c12	/	1.5
CN1CCN(S(=O)(=O)c2ccc3c(c2)OCC(C(=O)N2CCOCC2)O3)CC1 (configuration not stated)	1.1	/
CCN(c1ccc(OC)cc1)S(=O)(=O)c1ccc(-c2ccc(=O)[nH]n2)s1	0.03	/
O=C(CN1C(=O)c2ccccc2S1(=O)=O)Nc1ccc(N2CCOCC2)c(Cl)c1	1.1	-0.18
O=C(NCc1ccc2c(c1)OCO2)c1cc(-c2cccs2)[nH]n1	2.5	-0.14

One compound at a time, as listed above.
CN1CCN(S(=O)(=O)c2ccc3c(c2)OCC(C(=O)N2CCOCC2)O3)CC1 (configuration not stated) is listed as TAR Tat displ = 1.1; CDC25B CDK2 inh = /
O=C(CSc1nncc2ccccc12)N1CCCCC1 is listed as TAR Tat displ = 8.3; CDC25B CDK2 inh = -0.11
COCCOC(=O)C1=C(C)NC2=C(C(=O)CC(c3cccs3)C2)C1c1ccc(C(=O)OC)cc1 (configuration not stated) is listed as TAR Tat displ = -1; CDC25B CDK2 inh = 0.9
